GLA inh pH 4.5: qHTS Assay for Inhibitors of Human alpha-Galactosidase at pH 4.5 | purified enzyme, 4-MU-alpha-Gal fluorescence, pH 4.5 | activity change, negative = inhibition, % at 105 µM | 230,000 tested, under 10 active | Alpha-galactosidase A (Homo sapiens), P06280; inconclusive = small, poorly fitted or top-dose-only inhibition, or a rising curve; inactive = flat fitted curve, though single readings scatter; no compound was filed as active;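 also: 0% = full activity with enzyme and -100% = basal without enzyme; dose as in the result columns while the protocol names 77 µM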
Rango dissoc inh: qHTS Assay for Inhibitors of RanGTP induced Rango (Ran-regulated importin-beta cargo) - Importin beta complex dissociation; AID 540253, 2011; Biochemical FRET Rango-importin beta, RanGTP-induced dissociation; Potency, µM (series often up to 46.1 µM), for the others: top-dose activity change, negative = inhibition; 0.071% of 340,000 active; active means falling FRET ratio curve, often poorly fitted, with flat reads before Ran was added; inconclusive means other falling curves, or compound fluorescence or quenching; inactive means flat or rising ratio curve;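 also: potency is read from the fitted curve at half-maximal effect; % of control where 0% means no effect; nearly all actives have a fitted effect of over 45% in size; -100% = wells without RanGTP and RCC1; the record marks most hits as doubtful in a second field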
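Two FRET readings bracket the reaction: one 5 min after compound meets Rango–importin beta, another 45 min after RanGTP-RCC1 (0.6 uM Ran, 0.2 uM RCC1, 2 mM GTP) is added. Only the second defines inhibition.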
Rango complex inh: qHTS Assay for Inhibitors of Rango (Ran-regulated importin-beta cargo) - Importin beta complex formation. Importin subunit beta-1 (Homo sapiens), Q14974. Rango CFP/YFP FRET sensor + importin beta, 45 min. Potency, µM (top dose mostly 92.2 µM), without a hit: at the top dose inhibition of complex formation. 0.031% of 340,000 active. AID 540263, 2011; active = rising FRET ratio curve, often small or poorly fitted; inconclusive = mostly compound fluorescence or quenching in the first reads; inactive = flat curves in all reads;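 also: potency is read from the fitted curve at half-maximal effect; 0% = DMSO wells and 100% = buffer wells lacking importin beta; nearly all actives have a fitted effect of over 15% in size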
Target sequence (Q14974 whole entry, looked up): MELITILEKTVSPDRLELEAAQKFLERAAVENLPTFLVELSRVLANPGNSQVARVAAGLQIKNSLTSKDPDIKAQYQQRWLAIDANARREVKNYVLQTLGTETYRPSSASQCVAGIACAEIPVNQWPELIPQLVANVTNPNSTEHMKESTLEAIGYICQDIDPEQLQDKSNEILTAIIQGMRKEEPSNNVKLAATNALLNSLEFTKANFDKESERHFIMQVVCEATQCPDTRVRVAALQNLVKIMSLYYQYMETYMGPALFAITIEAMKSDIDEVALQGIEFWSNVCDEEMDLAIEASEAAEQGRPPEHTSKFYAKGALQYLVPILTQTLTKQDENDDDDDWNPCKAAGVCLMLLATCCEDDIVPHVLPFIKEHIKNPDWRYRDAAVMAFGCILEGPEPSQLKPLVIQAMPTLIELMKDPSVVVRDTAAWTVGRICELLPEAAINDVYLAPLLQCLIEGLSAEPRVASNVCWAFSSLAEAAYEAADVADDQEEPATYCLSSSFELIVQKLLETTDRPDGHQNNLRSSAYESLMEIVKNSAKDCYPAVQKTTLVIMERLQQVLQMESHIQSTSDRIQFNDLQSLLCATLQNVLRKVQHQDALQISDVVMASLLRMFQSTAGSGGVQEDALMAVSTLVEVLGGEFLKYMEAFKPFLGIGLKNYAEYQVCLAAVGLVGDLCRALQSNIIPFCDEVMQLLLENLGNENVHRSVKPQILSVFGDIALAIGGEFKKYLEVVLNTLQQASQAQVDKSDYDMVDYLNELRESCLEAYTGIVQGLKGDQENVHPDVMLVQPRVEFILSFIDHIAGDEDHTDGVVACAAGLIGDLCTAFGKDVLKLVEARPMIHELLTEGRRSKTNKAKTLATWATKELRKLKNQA
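FRET biosensor (snurportin 1 IBB flanked by EYFP and cerulean), 50 nM, with compound 5 min, then 0.125 microM importin beta in PBS, 1 mM DTT, 0.02% Tween-20, 0.1% BSA. CFP/YFP ratio read after 45 min at room temperature; pre-read flags interference.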
miR-21 reporter: qHTS Assay for Modulators of miRNAs and/orActivators of miR-21; HeLa miR-21 FLuc reporter, luciferase, 48 h; Potency, µM (top dose mostly 38.3 µM), inactives show top-dose reporter change, positive = more light; 340,000 tested, under 10 active; active = well fitted rising curve with a large enough effect; inconclusive = small, poorly fitted or top-dose-only effect; inactive = no such curve, though single readings can be large or run the other way;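 also: % of control where 0% means no effect; miR-21 action dims this reporter so a rising signal means less miR-21 action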
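HeLa cells endogenously expressing miR-21, stably carrying CMV-driven firefly luciferase with a downstream miR-21 binding site, 2000 cells/well. Titrations up to approximately 40 uM, 48 hours; luciferase luminescence read.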
An asterisk follows results filed as active; u = inconclusive; x = not tested or not shown; & = joins results of further samples; [ ] = another dose, or the depositor's remark. Only part of the results is shown (hit frequency here may not be typical).

SMILES	GLA inh pH 4.5	Rango dissoc inh	Rango complex inh	miR-21 reporter
Cc1ccc(-c2cc[n+](Cc3ccccc3)cc2)cc1	2.5	-4.4%	2.8%	u
COc1cc(CNc2ccc3[nH]c(=O)[nH]c3c2)ccc1OCc1ccc(F)cc1	x	-12.7%	2.1%	-18.8%
Cc1cc(C)n2nc(C(=O)NNC(=O)c3ccccc3)nc2n1	-0.7	8.4%	4.2%	-0.1%
COC(=O)c1cc(Cl)c(NC(=O)c2cc3ccccc3o2)cc1OC	9.6	0.4%	-1.8%	-9.2%
O=C(CCCc1ccccc1)Nc1ccnn1C1CCN(Cc2ccccc2)CC1	x	-14.7%	-0.7%	2.6%
CCn1cc(C(=O)NCCC2=CCCCC2)c(=O)c2cc(S(=O)(=O)N(C)C)ccc21	-3.4	-1.9%	-0.5%	-4.2%
O=C(Nc1ccc(O)c2c(=O)cc(-c3cccc(Cl)c3)oc12)c1ccccc1Cl	3.4	8.9%	2.5%	-4.6%
COCCCNC(=O)Nc1ccc(F)cc1F	-3.3	19.4%	-0.7%	-9.9%
Cc1cccc(NC(=O)C(=O)NCC2CCCN2S(=O)(=O)c2cccs2)c1C (configuration not stated)	x	15.8%	0.6%	x
O=C(NCc1ccc(OC(F)(F)F)cc1)c1cccc2c1C(=O)c1ccc(N3CCC(Cc4ccccc4)CC3)cc1S2(=O)=O	x	u	u	x
CN(CCOc1cccc2ccccc12)Cc1ccccc1	x	-2.3%	4.7%	-4.7%
Cc1cc(NC(=O)CSc2nccn2-c2cccc(Cl)c2)no1	x	1.7%	-1.9%	-14.9%
CC(=O)Nc1ccc(C(=O)COC(=O)CCc2ccccc2)c(F)c1	x	-9.3%	-0.8%	x
COc1ccc(/C=N/NC(=O)c2ccc(C)nc2)cc1O	x	-11.6%	-3.7%	-1.1%
N#Cc1ccc(C#Cc2ccc3oc4ccccc4c(=O)c3c2)cc1	x	0.6%	-0.2%	x
COc1ccc(OC)c(C2=NOC(C(=O)NCC3CCCO3)C2)c1 (configuration not stated)	-2.4	-4.2%	2.2%	-6.0%
COc1ccc(CC(=S)N2CCOCC2)cc1F	6.7	-7.4%	0.2%	-9.0%
Cc1ccc(S(=O)(=O)NCC(=O)N2CCOCC2)cc1	-1.8	52.3%	-2.9%	-3.6%
CC1CCCN(C(=O)CSc2nc3ccccc3o2)C1 (configuration not stated)	-5.3	0.0%	-0.6%	-51.3%
CCn1c(Oc2ccccc2C)nc2c1c(=O)n(C)c(=O)n2C	x	0.0%	-1.4%	12.1%
CCN1C(C)=CC(=O)[C@@H](O)[C@H]1c1ccccc1Br	x	3.5%	5.2%	x
CCCn1nnnc1NCc1ccccc1OCc1cccs1	-3.0	-8.3%	-1.5%	-2.6%
O=C(NCc1ccco1)c1ccc2c(=O)n(Cc3ccco3)c(SCC(=O)N3CCCC3)nc2c1	9.5	29.6%	-5.4%	5.5%
CC1(C)CC(=O)C(C=NCCN2CCNCC2)=C(O)C1	-1.1	5.0%	1.9%	-1.3%
CCCc1cc(=O)oc2cc(OC(=O)CN3C(=O)NC4(CCCC4)C3=O)ccc12	x	11.6µM*	u	x
Continued.
SMILES	GLA inh pH 4.5	Rango dissoc inh	Rango complex inh	miR-21 reporter
Nc1ccc(-c2nnc(-c3ccc(N)cc3)o2)cc1	x	2.0%	1.1%	-62.6%
CC1CN(C(=O)CSc2nc(-c3ccc(F)cc3)cs2)CC(C)O1 (configuration not stated)	10.1	-16.0%	-1.2%	-6.4%
COc1ccccc1N(CC(=O)NCCSCc1ccco1)S(=O)(=O)c1ccccc1	x	0.0%	0.2%	9.1%
O=C(NCc1cccs1)c1ccc(Cl)c(S(=O)(=O)N2CCCC2)c1	-7.5	10.9%	2.6%	-6.9%
C=CCNC(=S)N1CCN(c2cc3c(cc2F)c(=O)c(C(=O)O)cn3CC)CC1	x	3.0%	2.5%	0.5%
CC(=O)Nc1ccccc1-c1nnn(CC(=O)Nc2ccc3c(c2)OCCO3)n1	4.1	3.4%	4.1%	-18.7%
O=C1CC[C@H](O)CCN1[C@H](CSc1ccc(Br)cc1)Cc1ccccc1	x	1.3%	0.3%	x
O=C1CN(C(=O)CNCc2cccc(Cl)c2)c2ccccc2N1	-2.7	6.7%	1.6%	-17.8%
COc1ccc(COC(=O)C2=C(C)NC(=O)NC2c2ccc(OC)cc2)cc1 (configuration not stated)	x	-4.6%	1.1%	15.3%
CC(C)Oc1ccc(Cn2c(=O)oc3ccccc32)cc1	x	-5.0%	-0.9%	-12.4%
COc1ccc2[nH]c(CN3CCN(CCC(C)C)C(CCO)C3)c(C)c2c1 (configuration not stated)	-0.4	-2.0%	4.4%	-0.4%
Cc1ccc(S(=O)(=O)N2CCOCC2)cc1C(=O)OC1CCCCC1=O (configuration not stated)	6.8	-7.0%	-1.8%	-2.2%
CN(C)C(=O)C1C2NC(=S)N(c3ccc(Cl)cc3)C1(C)Oc1ccc(Cl)cc12 (configuration not stated)	-13.4	-3.7%	3.1%	7.5%
Cn1c(=O)[nH]c(=O)c2c1nc(CN1CCOCC1)n2Cc1ccccc1	-6.4	7.9%	3.8%	-4.2%
COc1ccc(CN(C)C(=O)C2CCN(C(=O)Nc3ccccc3)CC2)cc1	x	5.3%	-0.8%	x
COc1cc(C(Nc2ccccn2)c2c(NC(=O)c3ccco3)sc(C)c2C)cc(OC)c1OC (configuration not stated)	-4.0	-8.6%	-4.4%	-49.9%
CC(NC(=O)Nc1ccccc1)C(c1cccs1)N1CCOCC1 (configuration not stated)	8.4	0.3%	-0.3%	-2.1%
O=C(O)c1ccc(/C=N/Nc2ncc(C(F)(F)F)cc2Cl)cc1	-5.9	-9.6%	2.6%	-8.1%
CCOc1ccccc1N1CCN(C(=O)c2cccc(-c3ccc(O)cc3)c2)CC1	3.9	0.1%	1.3%	12.3%
Cc1cccc(C)c1OCCNC(=O)c1ccc2ccccc2n1	2.4	-6.4%	1.4%	0.3%
Cc1ccc(S(=O)(=O)N(C)c2ccc(C(=O)N3CCCCC3)cc2)cc1	1.2	-6.9%	1.3%	13.3%
NC(=O)CSc1nccn1Cc1ccccc1	0.7	-6.5%	-0.2%	-3.2%
COc1ccc2[nH]cc(CCNC(=O)COc3cc(C)cc4oc(=O)cc(C)c34)c2c1	x	10.6%	0.5%	-0.4%
CCc1cccc(CC)c1NC(=O)C[n+]1cccc(C(N)=O)c1	-14.9	-6.1%	-0.2%	-1.4%
Cc1ccc(C)c2c1cc(C)c1nnc(SCC(=O)N3CCCc4ccccc43)n12	4.9	-4.8%	-4.7%	-1.1%
New compounds follow
SMILES	GLA inh pH 4.5	Rango dissoc inh	Rango complex inh	miR-21 reporter
Cc1ccc(S(=O)(=O)N2[C@@H](c3ccccc3)C(C(=O)O)=CC[C@H]2c2ccc3c(c2)OCO3)cc1	x	-5.1%	-0.9%	x
Cc1ccc(C2(C(F)(F)F)NC(=O)N3N=C4CCCCCN4C3=C2C#N)cc1 (configuration not stated)	2.5	1.2%	3.0%	-1.5%
CC(C)Cn1c(N)c(C(=O)CSc2nnc(C3CC3)n2C2CC2)c(=O)n(C)c1=O	x	0.1%	-1.9%	x
CN1CCN(C(=O)OCCOCCOC(=O)N2CCN(C)CC2)CC1	x	-3.9%	0.4%	x
CCc1ccc(-c2cc(C)no2)cc1S(=O)(=O)NCCc1ccc(OC)c(OC)c1	x	-1.1%	6.3%	8.8%
COc1ccc(N2CCN(C(=O)c3ccncc3)CC2)cc1	0.0	10.9%	-0.2%	-1.2%
O=C(CCN1C(=O)c2ccccc2C1=O)Nc1ccccn1	2.1	0.4%	1.4%	-3.9%
CSCCC(NC=C1C(=O)OC(C)(C)OC1=O)C(=O)O (configuration not stated)	-22.3	2.8%	-0.7%	-0.6%
CCc1ccccc1NC(=O)CNC(=O)CNC(=O)c1cccs1	x	-8.9%	-4.3%	x
Cc1ccc(NC(=O)CN(c2ccccc2F)S(C)(=O)=O)cc1	-2.3	-8.6%	-1.3%	-9.0%
CCCCn1c(SCC(=O)NCc2ccco2)nnc1-c1ccco1	-2.3	21.1%	1.9%	-0.7%
COc1ccc(CN2C(=NC(=O)CCC3CCCC3)SC3CS(=O)(=O)CC32)cc1 (configuration not stated)	x	9.5%	1.8%	-0.2%
CCN1CCN(c2nc3c(C)cccn3c(=O)c2C=C(C#N)C#N)CC1	x	u	u	0.1%
C=CCn1c(SCC(=O)Nc2ccccc2OC)nc2c([nH]c3ccccc32)c1=O	x	22.2%	0.8%	4.2%
O=C(COC(=O)c1ccc(Br)o1)NCCc1ccccc1	-5.0	-0.1%	0.0%	0.1%
O=C(COC(=O)Cc1ccccc1[N+](=O)[O-])NCC1CCCCC1	-3.4	-16.0%	-3.3%	-6.9%
Cc1occc1C(=O)N(C)Cc1nc(-c2ccc(Cl)cc2)no1	x	13.3%	-1.1%	-4.4%
OCC[C@H]1C[C@H](O)[C@@H](O)[C@@]2(CCCO2)O1	x	4.8%	-0.2%	x
N#Cc1ccc(C(=O)Nc2ccc(N3CCN(C(=O)c4ccco4)CC3)cc2)c(F)c1	-1.6	-6.5%	u	0.8%
Nc1cc(Cl)ccc1C(=O)OCC(=O)NC1CCCCC1	15.0	9.9%	-7.2%	-2.2%
O=C(CCNC(=O)c1ccc(Br)cc1)NNC(=O)C1COc2ccccc2O1 (configuration not stated)	x	-0.5%	1.4%	x
C=CCSc1nnc2nc3[nH]c4c(C)cccc4c3nn12	-0.8	-1.1%	4.9%	-18.3%
Cc1sc2ncn(CC(=O)NCCCN3CCC(C)CC3)c(=O)c2c1S(=O)(=O)N1CCC(C)CC1	x	-1.6%	2.3%	10.0%
O=C1NC(=Nc2ccc(Cl)cc2)/C(=C/c2ccco2)S1	-4.0	-22.7%	u	-23.0%
CCOC(=O)C1CCN(C(=O)CN2C(=O)C(CC)Oc3ccccc32)CC1 (configuration not stated)	-1.6	-7.6%	0.4%	-3.8%

Profiles from above.
CSCCC(NC=C1C(=O)OC(C)(C)OC1=O)C(=O)O (configuration not stated) across the screens: GLA inh pH 4.5 = -22.3; Rango dissoc inh = 2.8%; Rango complex inh = -0.7%; miR-21 reporter = -0.6%
O=C(COC(=O)c1ccc(Br)o1)NCCc1ccccc1 across the screens: GLA inh pH 4.5 = -5.0; Rango dissoc inh = -0.1%; Rango complex inh = 0.0%; miR-21 reporter = 0.1%

The list goes on.
SMILES	GLA inh pH 4.5	Rango dissoc inh	Rango complex inh	miR-21 reporter
O=C(Nc1nc2c(F)cc(F)cc2s1)C1CC(=O)N(Cc2ccco2)C1 (configuration not stated)	-5.3	-23.7%	-4.6%	-10.6%
COc1ccc(CNC2CC(=O)N(C)C2=O)cc1 (configuration not stated)	-4.9	-5.5%	0.8%	-6.0%
Cn1c(=O)c2c(nc(SCCOc3ccc4ccc(=O)oc4c3)n2C)n(C)c1=O	11.7	x	x	-5.4%
COc1ccc(C)cc1NC(=O)C(OC(=O)c1cc(C)oc1C)c1ccccc1 (configuration not stated)	-6.2	-8.6%	u	0.7%
CC1CCCCC12NC(=O)N(CC(=O)NC(=O)Nc1ccc3c(c1)OCCO3)C2=O (configuration not stated)	-1.3	u	-0.3%	-42.0%
CC(C)(C)C(=O)NC1(C(F)(F)F)N=C2SCCN2C1=O (configuration not stated)	-8.5	-0.7%	2.5%	-3.0%
Cn1c(CN2CCOCC2)nnc1SCC(=O)Nc1nccs1	-6.2	-2.4%	-4.1%	-6.3%
Cc1ccc(-c2noc(CCC(=O)Nc3cc(C)ccn3)n2)cc1	-4.6	u	2.8%	-1.7%
CCCN(C(=O)Cn1ncc2c(=O)oc3ccccc3c21)c1cccc(C)c1	-4.9	-7.7%	1.1%	-3.0%&-8.1%
O=C1CCc2ccc(NS(=O)(=O)c3ccc(F)cc3)cc2N1	7.4[21.1 µM]	-5.1%	-1.0%	5.3%
CCOC(=O)Nc1nc(C)c(C(=O)c2ccc(Cl)cc2)s1	-7.2	3.3%	-0.9%	-1.0%
Cc1ccc(C(=O)N/C(=C/c2ccc(-c3ccc([N+](=O)[O-])cc3)o2)C(=O)NCCCN(C)C)cc1	x	u	u	x

High-throughput results (PubChem BioAssay)
